Bioassay records (PubChem)
Rango dissoc inh: inhibitors of RanGTP-induced Rango-importin beta complex dissociation. 340,000 tested, 0.071% active. Biochemical FRET Rango-importin beta, RanGTP-induced dissociation. Potency, µM (titrated, usually from 46.1 µM), inactives show at the highest dose activity change, negative = inhibition. AID 540253. O95149+P62826; active means falling FRET ratio curve, often poorly fitted, with flat reads before Ran was added; inconclusive means other falling curves, or compound fluorescence or quenching; inactive means flat or rising ratio curve;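 also: potency is read from the fitted curve at half-maximal effect; % of control where 0% means no effect; nearly all actives have a fitted effect of over 45% in size; -100% = wells without RanGTP and RCC1; the record marks most hits as doubtful in a second field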
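Recombinant Rango FRET biosensor (EYFP–snurportin 1 IBB–cerulean CFP10) at 0.1 uM premixed with 0.25 uM importin beta in PBS, 1 mM DTT, 0.02% Tween-20, 0.1% BSA. Compound added 5 min; RanGTP-RCC1 (0.6 uM Ran, 2 mM GTP, 0.2 uM RCC1) then triggers release, read at 45 min.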
Rango complex inh: inhibitors of Rango-importin beta complex formation; AID 540263; Rango CFP/YFP FRET sensor + importin beta, 45 min; 340,000 tested, 0.031% active; Potency, µM (top dose mostly 92.2 µM), for the others: at the top dose inhibition of complex formation; active = rising FRET ratio curve, often small or poorly fitted; inconclusive = mostly compound fluorescence or quenching in the first reads; inactive = flat curves in all reads;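 also: potency is read from the fitted curve at half-maximal effect; 0% = DMSO wells and 100% = buffer wells lacking importin beta; nearly all actives have a fitted effect of over 15% in size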
Target sequence (Q14974 whole entry, looked up): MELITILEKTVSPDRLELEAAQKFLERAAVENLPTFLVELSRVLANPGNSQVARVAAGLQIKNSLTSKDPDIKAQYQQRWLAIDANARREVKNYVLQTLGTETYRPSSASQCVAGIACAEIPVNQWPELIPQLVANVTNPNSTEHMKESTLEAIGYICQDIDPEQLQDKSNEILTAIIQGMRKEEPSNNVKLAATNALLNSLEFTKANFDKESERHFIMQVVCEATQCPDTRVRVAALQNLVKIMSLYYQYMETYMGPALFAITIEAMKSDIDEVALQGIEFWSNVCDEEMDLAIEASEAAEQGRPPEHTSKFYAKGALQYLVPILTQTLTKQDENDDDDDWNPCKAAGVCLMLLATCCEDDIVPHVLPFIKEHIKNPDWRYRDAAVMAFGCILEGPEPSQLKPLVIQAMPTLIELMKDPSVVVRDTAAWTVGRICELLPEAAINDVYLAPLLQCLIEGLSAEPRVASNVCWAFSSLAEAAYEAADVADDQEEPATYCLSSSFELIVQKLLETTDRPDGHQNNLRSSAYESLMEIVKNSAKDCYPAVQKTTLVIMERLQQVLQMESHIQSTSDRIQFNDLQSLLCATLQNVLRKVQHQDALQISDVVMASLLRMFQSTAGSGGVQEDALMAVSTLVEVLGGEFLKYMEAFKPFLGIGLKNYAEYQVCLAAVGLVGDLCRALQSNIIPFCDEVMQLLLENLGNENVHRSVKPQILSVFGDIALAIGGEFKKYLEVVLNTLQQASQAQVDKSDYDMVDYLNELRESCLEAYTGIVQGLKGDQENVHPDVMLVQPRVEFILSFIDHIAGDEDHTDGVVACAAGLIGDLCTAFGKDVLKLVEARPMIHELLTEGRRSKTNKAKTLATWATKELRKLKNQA
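FRET biosensor Rango (snurportin 1 IBB between N-terminal EYFP and C-terminal Cerulean), 50 nM in PBS/1 mM DTT/0.02% Tween-20/0.1% BSA, preincubated 5 min RT with compound; 0.125 microM importin beta added, 45 min RT, CFP/YFP FRET ratio read.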
GLA inh pH 4.5: blocks human alpha-galactosidase A at pH 4.5; P06280; purified enzyme, 4-MU-alpha-Gal fluorescence, pH 4.5; activity change, negative = inhibition, % at 105 µM; 230,000 tested, under 10 active; AID 1467; inconclusive = small, poorly fitted or top-dose-only inhibition, or a rising curve; inactive = flat fitted curve, though single readings scatter; no compound was filed as active;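 also: 0% = full activity with enzyme and -100% = basal without enzyme; dose as in the result columns while the protocol names 77 µM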
miR-21 reporter: raises the signal of a miR-21 reporter | Potency, µM (doses to about 38.3 µM), for inactives: top-dose reporter change, positive = more light | HeLa miR-21 FLuc reporter, luciferase, 48 h | AID 2288 | 340,000 tested, under 10 active; active = well fitted rising curve with a large enough effect; inconclusive = small, poorly fitted or top-dose-only effect; inactive = no such curve, though single readings can be large or run the other way;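 also: % of control where 0% means no effect; miR-21 action dims this reporter so a rising signal means less miR-21 action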
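HeLa cells endogenously expressing miR-21, stably carrying CMV-driven firefly luciferase with a downstream miR-21 binding site, 2000 cells/well. Titrations up to approximately 40 uM, 48 hours; luciferase luminescence read.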
* = called active by the depositor; ? = inconclusive; / = no result given; & = joins results of further samples.

Sequence of screens – miR-21 reporter | GLA inh pH 4.5 | Rango complex inh | Rango dissoc inh
[1] CCOC(=O)Cc1csc(NC(=O)c2ccncc2)n1
  0% | -2 | ? | -26%
[2] O=C(Nc1cccc(Cl)c1)NC1CCCCC1
  -43% | -12 | -0.4% | -2%
[3] CCCCOc1ccc(C2CC(=O)NC2=O)cc1 (stereo unspecified)
  -26% | 6 | -5.2% | -5%
[4] O=C(NNS(=O)(=O)Cc1ccccc1)c1ccc([N+](=O)[O-])cc1
  1% | 5 | -0.2% | -9%
[5] CC(C)C(NC(=O)c1ccccc1F)C(=O)NCCCn1ccnc1 (stereo unspecified)
  / | / | -2.7% | 7%
[6] COc1ccc(/C=C(/CC(=O)Nc2ccccc2)c2nc3ccccc3s2)cc1
  -29% | -26 | 2.5% | -11%
[7] CCC(c1nnnn1C(C)(C)C)N(Cc1cccs1)Cc1cc2cc(C)c(C)cc2n2nnnc12 (stereo unspecified)
  / | / | ? | 1%
[8] COc1cc2c(cc1OC)C(C(=O)N1CCN(c3ccccc3)CC1)C(c1cccs1)N(C)C2=O (stereo unspecified)
  -12% | 0 | -5.9% | -17%
[9] O=C(O)c1ccccc1C(=O)Nc1ccccc1
  -5% | -10 | -1.1% | 7%
[10] O=C(Cc1cccc2ccccc12)Nc1cc(Cl)ccc1C(=O)O
  2% | / | 0.5% | 5%
[11] Cc1cccc(NC(=S)N(C)C2(c3ccccc3Cl)CCCCC2=O)c1 (stereo unspecified)
  -6% | -2 | -2.4% | 1%
[12] COc1ccc(-c2c(=O)n(OCc3nc4ccccc4[nH]3)c3ccccc3[n+]2[O-])cc1
  -43% | -4 | ? | ?
[13] COc1cc2c(cc1OC)CN(C(=O)CSc1ccc(F)cc1)CC2
  / | / | 2.8% | -17%
[14] CCOc1ccccc1NC(=O)CSc1nnnn1C1CCCC1
  1% | / | 1.2% | -2%
[15] O=C(Cn1cc(COc2cc(F)cc(F)c2)nn1)c1ccc(O)cc1
  / | / | -2.2% | 7%
[16] C=Cn1cc[n+](CC(=O)c2cccs2)c1
  -1% | / | 0.9% | 8%
[17] CC(/C=N/NC(=S)Nc1cccc(S(=O)(=O)N(C)C)c1)c1ccccc1 (stereo unspecified)
  -5% | -8 | -2.4% | 2%
[18] CCOC(=O)C1(CCOc2ccccc2)CCN(Cc2ccc3c(c2)OCCO3)CC1
  5% | -13 | 3.3% | 11%
[19] O=C1C2C3CCC(O3)C2C(=O)N1c1nccs1 (stereo unspecified)
  / | / | -0.7% | 0%
[20] NC(=O)Cn1c(=O)n(-c2ccccc2)c(=O)c2oc3ccccc3c21
  3% | 10 | 0.7% | -4%

Record cards (already shown). Order of screens: miR-21 reporter | GLA inh pH 4.5 | Rango complex inh | Rango dissoc inh
O=C(NNS(=O)(=O)Cc1ccccc1)c1ccc([N+](=O)[O-])cc1 across the screens: 1% | 5 | -0.2% | -9%
CCOC(=O)Cc1csc(NC(=O)c2ccncc2)n1 across the screens: 0% | -2 | ? | -26%
COc1cc2c(cc1OC)C(C(=O)N1CCN(c3ccccc3)CC1)C(c1cccs1)N(C)C2=O (stereo unspecified) across the screens: -12% | 0 | -5.9% | -17%

Continued:
Sequence of screens – miR-21 reporter | GLA inh pH 4.5 | Rango complex inh | Rango dissoc inh
[21] COc1cc(CN2CCC(n3nccc3NC(=O)c3ccc4c(c3)OCO4)CC2)ccc1O
  -3% | / | 1.6% | -11%
[22] CN1C=C/C(=C\c2cc[n+](C)c3ccccc23)c2ccccc21
  ? | -1 | -2.2% | -8%
[23] Cc1[nH]n(-c2ccc(F)cc2)c(=O)c1/C=N/c1sc2c(c1C#N)CCCC2
  -1% | 6 | -1.5% | -18%
[24] Nc1ccc2c(c1)Nc1ccccc1CC2
  -4% | -3 | -0.6% | 1%
[25] CC(OC(=O)c1cccc(O)c1)C(=O)N(C)Cc1ccccc1 (stereo unspecified)
  / | / | 5.4% | 17%
[26] O=C(CC1C(=O)NCCN1Cc1ccc(F)cc1Cl)NC1CCCCCCC1 (stereo unspecified)
  -4% | / | -0.5% | 0%
[27] CC(=O)c1c(C)n([O-])c2ccc(C)cc2[n+]1=O
  1% | -8 | 1.0% | -3%
[28] COc1cccc(OCCOc2ccc(/C=C3/SC(=S)NC3=O)cc2)c1
  -3% | / | 1.8% | 1%
[29] O=C(c1ccccc1)C1CCN(C(=O)C2CCC(=O)N(Cc3ccccc3F)C2)CC1 (stereo unspecified)
  6% | / | -3.7% | 16%
[30] CC1CN(S(=O)(=O)N2CCOCC2)CCN1S(=O)(=O)N1CCOCC1 (stereo unspecified)
  -4% | 7 | 2.2% | -12%
[31] CN1CCN(S(=O)(=O)c2ccc(NC(=O)c3ccccc3F)cc2)CC1
  -7% | / | -2.4% | -13%
[32] Cc1ccc(CN2CCC(C(=O)NCCC(C)C)CC2)o1
  -6% | 2 | -0.3% | 12%
[33] COC(=O)CNC(=O)c1cccc(Cl)c1
  0% | -8 | 0.7% | -28%
[34] COc1ccc(C(=O)C(C)OC(=O)CNC(=O)c2ccco2)cc1 (stereo unspecified)
  / | / | 0.4% | 3%
[35] O=C(COC(=O)c1cc(Cl)ccc1O)NC(=O)NCc1ccccc1
  / | / | 2.9% | 0%
[36] Cn1c(=O)c(=O)n(C)c2cc(S(=O)(=O)NCCN3CCN(c4ccccc4F)CC3)ccc21
  0% | -15 | -0.8% | 5%
[37] O=C(CSc1nc2nc(-c3cccs3)cc(C(F)(F)F)c2c(=O)[nH]1)Nc1c(F)c(F)c(F)c(F)c1F
  4% | 6 | ? | 1%
[38] CC1(C)C(C(=O)OCC(Cl)(Cl)Cl)N2C(=O)C(NC(=O)Cc3ccccc3)C2S1=O (stereo unspecified)
  0% | / | 1.8% | -16%
[39] CN(CC(=O)Nc1ccc(Cl)c(Cl)c1)C(=O)C12CC3CC(CC(C3)C1)C2
  17% | 4 | -0.3% | 5%
[40] COCCCNC(=O)C1=CCN(S(=O)(=O)c2ccc(C)cc2)CC1
  0% | / | -2.1% | 4%
[41] O=C(CSc1nnc(-c2ccccn2)n1Cc1ccccc1)N1CCCC1
  -1% | -5 | -0.9% | -5%
[42] NC(=O)c1nsc(C(=O)N(Cc2ccco2)C(C(=O)NCc2ccc(F)cc2)c2ccc(O)cc2)c1N (stereo unspecified)
  19% | / | -4.8% | 1%
[43] CC1=C(C(=O)Nc2ccccn2)C(c2ccc(F)cc2)n2ncnc2N1 (stereo unspecified)
  -8% | 3 | -4.2% | 12%
[44] CC(C)(C)C(=O)C1=C(O)C(=O)N(Cc2ccccc2)C1c1ccccc1F (stereo unspecified)
  3% | / | -1.4% | 13%
[45] CC(C)OC(=O)c1cccc(C(=O)Nc2cccc(NC(=O)c3cccc(C(=O)OC(C)C)n3)n2)n1
  -3% | 4 | -1.3% | -4%
[46] CSc1nc2ccccc2nc1N(C)S(=O)(=O)c1ccc(C)cc1
  3% | -2 | -1.7% | -13%
[47] O=C(O)C1C2CCC(C2)C1C(=O)NCCCn1ccnc1 (stereo unspecified)
  -2% | -2 | 0.2% | 0%
[48] Cn1cccc1C(=O)OCC(=O)NNC(=O)c1ccc([N+](=O)[O-])cc1
  / | / | 2.0% | -7%
[49] O=C(Nc1cccnc1)c1cc(-c2ccc3c(c2)OCO3)on1
  -28% | -2 | 2.5% | 8%
[50] CNC(=O)CSc1nnc(-c2ccc(S(=O)(=O)N3CCCC3)cc2)n1-c1cccc(C)c1C
  -1% | -1 | 0.3% | 13%
[51] COC(C(=O)Nc1ccc(S(=O)(=O)N2CCCCC2)cc1)c1ccccc1 (stereo unspecified)
  1% | -8 | 5.2% | 1%
[52] CCc1cccc(NC(=O)CS(=O)Cc2nc(-c3ccc(C)cc3)oc2C)c1 (stereo unspecified)
  -3% | 1 | -2.3% | 11%
[53] Cn1c(=O)n(C)c2cc([N+](=O)[O-])c(N3CCN(C(=O)c4ccccc4Br)CC3)cc21
  19% | -3 | 4.6% | 0%
[54] O=C1c2cc(Cl)ccc2OC2(CCNCC2)C12CC(c1ccc(Cl)cc1)=NO2 (stereo unspecified)
  0% | 5 | 0.6% | 14%
[55] CC(C)Nc1nnc(SC(C)C(=O)NCc2ccc3c(c2)OCO3)s1 (stereo unspecified)
  -1% | 3 | -0.4% | 0%
[56] NC(=O)C1CN(C(=O)c2nn(Cc3ccccc3)c(=O)c3ccccc23)c2ccccc2O1 (stereo unspecified)
  / | / | -0.3% | -19%
[57] CSc1cccc(CN2CCN(Cc3ccccc3)C(CCO)C2)c1 (stereo unspecified)
  -7% | -12 | 4.2% | 25%
[58] COc1ccc(-c2nc(N=Nc3ccc(O)cc3)n[nH]2)cc1
  -32% | -20 | 0.6% | -28%
[59] COc1ccccc1NC(=O)c1ccc(NC(=O)C2CC2C)cc1 (stereo unspecified)
  / | / | 3.3% | -6%
[60] CC(C)(C)OC(=O)CN1C(=O)C(Sc2n[nH]c(-c3ccccc3)n2)CCc2ccccc21 (stereo unspecified)
  16% | -8 | 4.2% | 11%

Results in sequence from the entries so far.
Entries 1–10 in miR-21 reporter: 0%, -43%, -26%, 1%, /, -29%, /, -12%, -5%, 2%
Entries 1–10 in Rango dissoc inh: -26%, -2%, -5%, -9%, 7%, -11%, 1%, -17%, 7%, 5%

The results go on.
Sequence of screens – miR-21 reporter | GLA inh pH 4.5 | Rango complex inh | Rango dissoc inh
[61] COCCn1nnnc1C(c1ccccc1Cl)N1CCN(c2ccccc2OC)CC1 (stereo unspecified)
  -5% | 4 | 0.4% | -11%
[62] CCN(CC)S(=O)(=O)c1ccc(N/N=C(\C)c2ccc(OC)cc2O)nc1
  24% | -8 | -1.4% | -3%
[63] O=C(NCCN1CCOCC1)c1ccccc1OCc1ccccc1
  / | / | -2.1% | 15%
[64] Cc1ccc(SCCSc2nc(N)cc(=O)[nH]2)cc1
  -35% | / | 0.1% | -6%
[65] Cc1nn(CC(=O)c2ccccc2Cl)c(C)c1[N+](=O)[O-]
  -45% | 1 | -0.9% | 5%
[66] O=[N+]([O-])c1cccc(-c2ccc3nnc(SCc4cccnc4)n3n2)c1
  / | / | -5.8% | 3%
[67] Cc1ccc(C(=O)OCC(=O)NCc2cccs2)cc1
  2% | 4 | 2.6% | -12%
[68] CCOc1ccccc1NS(=O)(=O)c1ccc(-c2cnc(C3CC3)o2)cc1
  22%&28% | / | 4.0% | 6%
[69] O=C(c1cc([N+](=O)[O-])ccc1N1CCOCC1)N1CCCC1
  -5% | 1 | -8.2% | 4%
[70] CC1=C(C)C(O)N(Cc2ccccc2)C1=O (stereo unspecified)
  -3% | / | -0.4% | 1%
[71] Cc1cccc(NC2=NCC(=O)N2Cc2ccccc2)c1
  -8% | -5 | ? | -27%
[72] COCCC(=O)N1CCCC(C(=O)c2ccc3c4c(cccc24)CC3)C1 (stereo unspecified)
  -7% | -5 | 0.3% | 0%
[73] COC(=O)CNC(=O)CN1C(=O)N(c2cccc(Cl)c2)C(N(O)C(=O)Nc2cccc(Cl)c2)C1(C)C (stereo unspecified)
  -3% | 2 | -2.2% | 1%
[74] CCN(CC)c1ccc(/C=N/NC(=O)CNC(=O)c2ccccn2)cc1
  -10% | -14 | ? | ?
[75] Cc1nc2ccc(-c3nc4ccccc4[nH]3)cc2[nH]1
  -19% | 7 | 0.1% | -14%
[76] O=C(O)c1cc(N2CCCCC2)nc2ccccc12
  / | / | -1.2% | 0%
[77] COc1ccc(CN2C3CCCC2CC(NC(=O)Nc2ccccc2C)C3)cc1 (stereo unspecified)
  -3% | -15 | 0.2% | -2%
[78] CN(C)S(=O)(=O)c1ccc(SCC(=O)Nc2cccc(S(=O)(=O)N3CCCC3)c2)nc1
  / | / | -0.3% | -20%
[79] COc1cc(Br)cc(C=Nc2cccc(C(F)(F)F)c2)c1O
  -1% | -2 | ? | ?
[80] CSc1ccccc1C(=O)N1CCC2(CC1)CC(=O)c1ccccc1O2
  / | / | -3.9% | 17%
[81] Cc1ccc(Nc2c([N+](=O)[O-])ccc3nonc23)c(C)c1
  -8% | / | 0.5% | 3%
[82] Fc1ccc(-c2csc3nnc(SCc4cccnc4)n23)cc1
  -12% | 5 | -4.1% | -14%
[83] O=C(NC1CC1)c1cc(=S)[nH]c2ccccc12
  / | / | -2.1% | -1%

A portion of the library; rates above refer to the full screens.
